# B2AR ag – agonists of human beta-2 adrenergic receptor inducing internalization. Am2.2-beta2AR cells, FAP receptor internalization, flow cytometry; reference of the scale not given here. response, % (test concentration not listed). AID 504454. P07550. hit rate 0.43% among 340,000;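 active means response above a set limit, near 3 SD of response in nonfluorescent compounds, cut at about 42% in these data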;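 further: stock transfer was 100 nL into about 11 µL; a reference agonist was the positive control; negative values mostly stem from fluorescent compounds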
# Vif TR-FRET – HIV-1 Vif–A3G interaction blockers – biochemical, TR-FRET, GST-Vif 1-94, biotin-A3G peptide, dose response retest, primary screen (AID 1117319); TR-FRET GST-Vif / biotin-A3G peptide binding; higher % means a stronger effect; test concentration not given here; strong numbers were not always called active; inhibition, %, or IC50 in µM where a hit was titrated; hit rate 0.57% among 260,000;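 active means above the screen mean plus three standard deviations and confirmed in dose response; inconclusive means results disagree or hit not tested in dose response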;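 further: Vif residues 1-94 fused to GST binding biotinylated APOBEC3G peptide 110-148; 0% = full assay without inhibitor and 100% = GST in place of GST-Vif; retest series ran down from 100 µM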
# A1 inh – inhibitors of the anti-apoptotic protein A1, read as caspase activation | AID 2462 | caspase activation, % (concentration not given with the values) | MEF A1-2A-BIM cells, Caspase-Glo 3/7 luminescence, 3 h; percent of clofoctol response, vehicle zero | hit rate 0.066% among 330,000;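 active means over half of replicate activation scores above 10%, or exactly half above 10 with the replicate mean above 10; inconclusive means replicate mean below 10 yet half the replicates above 10; inactive means over half of replicates below 10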;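 further: wells of about 30 µL received 50 nL stock; many hits fall short of the cut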
# LANA-H2B inh – blocks KSHV LANA binding to histone H2A/H2B; Q9QR71; inhibition, % (test concentration not listed); hit rate 0.6% among 320,000; cell-free LANA-H2A/H2B peptide, fluorescence polarization; in the data active means inhibition mostly above about 10%, no sharp cut-off; inactive means mostly below about 6.7%;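 further: stock transfer was 7.5 nL into about 10 µL; 0% = median of vehicle wells and 100% = median of positive control wells; one replicate is shown; the record names a cut of 25% in any replicate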
# UCH37 DUB inh – blocks the human deubiquitinase UCH37. purified proteasome/UCH37, Ub-AMC cleavage fluorescence. inhibition, % (test concentration not listed). hit rate 0.33% among 330,000. AID 588478. Q9Y5K5;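 active means mean of two replicates above 20%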;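 further: 0% = compound-free wells with enzyme and 100% = wells lacking proteasome; stock transfer was 100 nL into about 20 µL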
# Target sequence (Q9Y5K5 whole entry, looked up): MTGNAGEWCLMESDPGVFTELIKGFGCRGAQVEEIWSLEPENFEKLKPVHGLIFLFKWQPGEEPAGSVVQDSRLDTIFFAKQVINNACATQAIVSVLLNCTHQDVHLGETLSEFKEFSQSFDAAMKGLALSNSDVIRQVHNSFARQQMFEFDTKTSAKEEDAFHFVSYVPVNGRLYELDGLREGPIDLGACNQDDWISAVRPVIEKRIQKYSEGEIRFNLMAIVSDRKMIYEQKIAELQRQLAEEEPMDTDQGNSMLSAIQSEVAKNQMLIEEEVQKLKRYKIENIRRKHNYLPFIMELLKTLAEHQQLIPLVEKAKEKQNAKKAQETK
#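 Reagent: Ub-AMC substrate; assay system: Proteasome-associated human UCH37 deubiquitinase; controls: no-proteasome and no-compound wells; read-out: % inhibition of Ub-AMC cleavage fluorescence; timing: 30 min preincubation with enzyme, 25 min cleavage at room temperature; signal: AMC fluorescence from Ub-AMC cleavage, excitation 355 nm, emission 460 nm; buffer or medium: Tris-HCl pH 7.4 plus ovalbumin, ATP-MgCl2, DTT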
# Ecoli growth – E. coli growth inhibition. Escherichia coli growth, OD600, 23 h; hits give low values. OD600 absorbance (test concentration not listed). hit rate 0.21% among 330,000;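 active means OD600 absorbance below the run mean of sample wells minus 3.6 SD, in any replicate, cut at about 0.56 in these data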;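 further: stock transfer was 300 nL into about 60 µL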
# HNF4A DNA FP – change in binding of human HNF4 alpha to DNA. P41235. HNF4a-FITC DNA binding, fluorescence polarization, 1 h. activity change, % at 10 µM. hit rate 0.3% among 360,000; in the data active means activity change above about 30%, passing the limit was not always enough;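 further: controls were the assay level and a saturating level of protein; the project sought stronger binding though the title names inhibitors; some compounds called inactive have numbers as strong as hits; positive values seem to mean higher polarization but the record does not say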
# Target sequence (P41235 whole entry, looked up): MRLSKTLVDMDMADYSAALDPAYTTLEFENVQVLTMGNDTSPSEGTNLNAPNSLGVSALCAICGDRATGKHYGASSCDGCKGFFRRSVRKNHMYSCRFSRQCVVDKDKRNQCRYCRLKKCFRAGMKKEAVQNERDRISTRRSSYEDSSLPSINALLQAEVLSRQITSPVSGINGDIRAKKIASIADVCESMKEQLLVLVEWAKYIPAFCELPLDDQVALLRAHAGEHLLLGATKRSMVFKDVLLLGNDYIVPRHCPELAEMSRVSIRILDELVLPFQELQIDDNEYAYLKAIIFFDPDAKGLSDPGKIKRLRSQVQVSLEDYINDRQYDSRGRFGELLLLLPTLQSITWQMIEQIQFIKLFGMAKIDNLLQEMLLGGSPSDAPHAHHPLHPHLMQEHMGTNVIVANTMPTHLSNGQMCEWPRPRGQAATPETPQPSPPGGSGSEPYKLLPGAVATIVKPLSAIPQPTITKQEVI
# * = called active by the depositor; ? = inconclusive; / = not tested or not shown; & = joins results of further samples.
SMILES,B2AR ag,Vif TR-FRET,A1 inh,LANA-H2B inh,UCH37 DUB inh,Ecoli growth,HNF4A DNA FP
C[C@@H]1CCC[C@]2(O[C@@H](CCO)C[C@@H](O)[C@@H]2O)O1,8.9,/,-1.4,3.2,5.6,/,2.3
N#Cc1ccc(OCC(=O)NCC2(N3CCCCC3)CCCCC2)cc1,1.1,13.2%,0.5,1.3,0.8,0.691,-1.7
O=C(Nc1ccn(CCCNCc2ccccn2)c(=O)n1)OCc1ccccc1,1.9,1.8%,/,/,/,/,2.3
CN(C)c1ccc(/C=N/NC(=O)CN2CCN(c3ccc(F)cc3)CC2)cc1,/,-0.3%,1.3,-1.3,/,/,/
CCOc1cccc(NC(=O)C2CCCN(S(=O)(=O)c3ccc(-n4cnnn4)cc3)C2)c1 (stereo not drawn),-4.7,-3.4%,-0.6,-0.9,1.7,0.763,-1.0
COc1ccc(CN(C)C(C)C(=O)Nc2ccc(S(=O)(=O)N3CCCCC3)cc2)cc1F (stereo not drawn),7.6,-1.2%,1.7,-2.8,-0.3,0.685,2.8
O=Cc1cc2ccccc2nc1SCc1ccc(Cl)c(Cl)c1,17.1,15.5%,1.9,-1.0,5.2,0.786,1.0
CSCC[C@H](NC(=O)[C@@H]1Cc2ccccc2CN1)C(=O)Nc1ccc2c(c1)OCO2,4.2,/,-0.4,8.2,-1.8,0.699,0.7
CC(C)(/C=N/O)/[N+]([O-])=C/c1ccccc1C(F)(F)F,6.7,10.0%,0.1,5.0,/,/,-3.3
Cc1nnc(C)n1/N=C/c1c(O)ccc2ccccc12,3.8,3.0%,-1.1,0.6,/,/,-0.2
O=S(=O)(NCC1CCCO1)c1ccc2oc3ccc(S(=O)(=O)NCC4CCCO4)cc3c2c1 (stereo not drawn),7.2,9.3%,-0.7,2.0,5.9,0.666,1.4
COc1cc(C(=O)Nc2cc(-c3nc4cc(C)ccc4o3)ccc2C)cc(OC)c1OC,22.3,-2.3%,0.1,-1.1,-3.2,0.69,-0.3
COc1ccc(NC(=O)C(=O)NCCN2CCN(C(=O)c3cccc(Br)c3)CC2)cc1,7.1,/,0.4,5.1,1.7,0.698,1.1
C[C@H](CO)N1C[C@H](C)[C@@H](CN(C)S(=O)(=O)c2cn(C)cn2)Oc2ccc(NC(=O)Nc3ccc4c(c3)OCO4)cc2C1=O,-2.3,/,-0.1,-2.5,2.4,/,-2.5
COc1ccc(OCCn2ccnc2C)cc1,2.0,/,0.8,-0.2,1.3,0.639,0.5
COc1ccc(NC(=O)COC(=O)C2CC3C=CC2C3)cc1 (stereo not drawn),-4.5,1.0%,1.0,-1.9,1.9,0.66,-1.4
CC(=O)Nc1ccc(C(=O)OCC(=O)N(C)C2CCCCC2)cc1,-0.8,-7.3%,1.1,-4.3,2.7,0.697,-4.3
CCSc1ccccc1C(=O)N=C1NC(=O)CC2C(=O)NCCN12 (stereo not drawn),-4.2,14.6%,-0.2,-0.7,1.1,0.719,1.1
CC(=O)NN=C1CCC(c2ccccc2)CC1 (stereo not drawn),-8.0,-7.4%,-0.3,3.4,1.9,0.691,4.5
CC1=NN(c2ccccc2)C(=O)/C1=C/c1ccc[nH]1,-22.6,-5.5%,0.8,0.4,9.2,0.684,-0.4
O=C1c2ccccc2C(=O)N1c1ccc(S(=O)(=O)N2CCN(c3ccccc3)CC2)cc1,-3.3,-3.8%,-0.3,4.6,-0.4,0.702,-1.6
COc1cc(NC(=O)[C@H]2CCCN2S(=O)(=O)c2cccc3cccnc23)cc(OC)c1OC,-9.8,/,0.3,-4.1,0.0,/,1.4
CCC1CN(C(=O)N2CCC(C(=O)NCc3ccco3)CC2)c2ccccc2O1 (stereo not drawn),-1.1,/,-1.2,-7.1,6.0,0.714,1.1
COC(=O)Nc1ccc(S(=O)(=O)N2CCC(C(=O)N3CCCC(C)C3)CC2)cc1 (stereo not drawn),0.2,1.4%,0.3,-3.5,/,/,1.1
CCOC(=O)[C@H]1[C@H]2COc3ccc(C)cc3[C@@H]2N2C(=O)CN(CC3CCCO3)C(=O)[C@@]12C (stereo partly drawn),-4.7,/,0.3,1.5,3.4,/,-2.2
C/C=C\C=C/C(=O)Nc1cccc(C2=NOC3(C2)C[C@H](C(N)=O)N(C(=O)c2ccc(OC)cc2)C3)c1 (stereo partly drawn),1.9,25.0%,0.7,-4.7,-3.1,/,-3.0
CCN1CCN(c2nc3c(c(=O)n(C)c(=O)n3C)n2Cc2cccc3ccccc23)CC1,-7.8,-3.9%&0.3%,-0.4,3.6,4.0,0.746,0.0
O=C1CN(C(=O)CSc2ccc(-c3ccc(F)cc3)nn2)c2ccccc2N1,-14.6,/,-0.3,-1.2,1.8,0.645,-0.1
c1ccc(COc2ccc(-c3csnn3)cc2)cc1,2.1,16.2%,-0.2,4.6,6.2,0.712,0.3
COC(=O)c1scc(C)c1NC(=O)CC1NCCNC1=O (stereo not drawn),-6.2,-6.3%,-0.1,-7.2,0.8,0.682,2.0
Cc1ccc2cc(CCNC(=O)CC(C)C)c(=O)[nH]c2c1,6.6,9.0%,-0.1,-4.6,-0.4,0.729,-3.2
CCC(Oc1ccccc1)C(=O)Nc1ccccc1C(=O)N1CCCCC1 (stereo not drawn),11.5,7.2%,-0.2,8.5,-0.8,0.692,0.4
CC1Sc2ccc(C(=O)Nc3ncccc3O)cc2NC1=O (stereo not drawn),0.3,7.5%,-4.5,-10.4,3.5,0.64,-6.3
O=C1C=C(c2ccccc2)CCC1,-6.0,/,-0.9,13.8,-1.0,0.701,2.5
CCCc1cc(=O)[nH]c(SCc2nc3ccc([N+](=O)[O-])cc3[nH]2)n1,14.9,30.8%,-1.7,-3.1,10.2,0.584,2.0
Cc1ccsc1/C=N/n1cnnc1,-10.5,-12.8%,0.2,1.7,/,/,-0.2
Cc1cccc(OCc2nnc(-c3ccc(F)cc3)o2)c1,6.7,2.5%,-0.5,0.6,1.1,0.691,3.0
COC(=O)CN(C(=S)Nc1ccccc1)C1CC(=O)N(c2ccc(OC)cc2)C1=O (stereo not drawn),11.2,-1.9%,2.9,-6.0,0.9,0.651,-7.7
Cc1ccc2[nH]c3c(c2c1)CN(C(=O)CN1CCCc2ccccc21)CC3,-9.2,9.9%,-0.5,2.8,6.0,0.659,10.3
COc1cc(NC(=O)CCCOc2ccc(Cl)cc2Cl)c(C(=O)O)cc1OC,3.6,1.6%,0.1,9.4,6.1,0.714,3.6
Cc1cc(N2CCOCC2)nc2ccc(NC(=S)N3CCN(Cc4ccccc4)CC3)cc12,7.9,-2.1%,-0.2,-0.9,-12.5,0.668,5.9
Clc1ccc(OCCn2c(-c3ccco3)nc3ccccc32)cc1,-7.1,4.5%,1.9,-7.6,0.6,0.701,-1.1
CN(c1ccccc1)S(=O)(=O)c1cccc(C(=O)NCCc2ccc(O)c(O)c2)c1,-0.3,/,-0.2,1.6,2.1,0.714,5.9
CC(=O)NC(=S)Nc1ccc(NC(=S)NC(=O)c2cccs2)cc1,2.2,/,0.4,-6.4,2.7,0.68,3.0
CC(=O)NCCc1nc2cc(NC(=O)c3ccc(F)cc3)ccc2n1C,-17.9,-6.1%,1.3,-1.3,1.0,0.644,4.2
N#CCSc1nnc(-c2sc3ccccc3c2Cl)o1,4.9,-72.9%,0.9,0.0,0.6,0.643,-1.9
COc1ccc(Cl)cc1S(=O)(=O)N1CCN(C(=O)COc2ccccc2)CC1,-9.3,5.2%,-1.2,-3.6,-1.1,0.734,-0.7
O=C(COC(=O)C1CCN(C(=O)c2ccc(Cl)cc2)CC1)NC1CCS(=O)(=O)C1 (stereo not drawn),-2.6,-3.8%,-0.2,0.6,-0.9,0.672,2.6
O=C(CN(C(=O)CNS(=O)(=O)c1ccc(F)cc1)c1ccc(F)cc1)NCc1ccco1,3.8,-4.8%,0.7,0.6,2.3,0.675,6.8
Cc1ccc(C2=CN(Cc3ccccc3)CCC2=O)cc1,-0.4,/,0.8,-1.3,1.2,0.654,-1.5
# The results go on:
SMILES,B2AR ag,Vif TR-FRET,A1 inh,LANA-H2B inh,UCH37 DUB inh,Ecoli growth,HNF4A DNA FP
CCOC(=O)CN(C(=O)Cn1nnc(-c2ccc(OC)cc2)n1)C(C(=O)NC1CCCC1)c1ccc(F)cc1 (stereo not drawn),-5.1,0.2%,1.2,1.6,0.6,0.721,-2.6
CSC(=NCc1cccnc1)NS(=O)(=O)c1cccs1,2.1,13.9%,-0.3,-0.4,5.0,0.666,0.8
O=C(CN1CCN(c2ncccn2)CC1)NCCC1=CCCCC1,7.0,-0.2%,-0.3,6.1,6.9,0.68,-4.6
CC(=O)c1ccc(NC(=O)c2ccc3nc(-c4ccco4)c(-c4ccco4)nc3c2)cc1,9.0,1.38µM*,0.1,3.5,-20.0,0.697,-48.2
COc1cccc(CNC(=O)CCNS(=O)(=O)c2cccc3nonc23)c1,-8.2,/,-1.5,6.8,-0.5,0.636,1.6
CC(=O)Nc1ccc(S(=O)(=O)N[C@@H](C)C(=O)N2CCN(c3ccccn3)CC2)cc1,-3.2,/,0.8,1.1,1.8,0.743,-0.2
O=C(NCCN1C(=O)S/C(=C/c2cccnc2)C1=O)C1=NN(c2ccccc2)C(=O)CC1,-0.1,/,0.0,3.2,2.2,0.705,0.2
O=C(OCC(=O)c1c[nH]c2ccccc12)c1ccc(Br)o1,1.7,2.6%,-0.3,-4.5,0.9,0.71,1.8
CC[C@]12c3[nH]c4cc(CCC(=O)N(C)C)ccc4c3CCN1C(=O)[C@@H](CC(=O)NCc1cccc(C(F)(F)F)c1)C[C@@H]2C(=O)N1CCN(C(=O)C2CC2)CC1,-3.4,/,/,/,2.4,0.69,-0.4
CCOc1ccc(NC(=O)CN(C)C(=O)c2n[nH]c(=O)c3ccccc23)cc1OCC,-7.6,5.0%,/,/,1.6,0.682,2.2
Cc1ccc(C(=O)N2CCN(S(=O)(=O)N3CCCCC3)CC2)cc1,-6.3,6.7%,2.3,4.0,0.4,0.682,1.8
CCC(=O)NC(c1ccc(C)cc1)c1cc([N+](=O)[O-])c2cccnc2c1O (stereo not drawn),-4.8,?,-1.8,-5.3,9.4,0.714,-5.1
COc1ccc(OC)c(S(=O)(=O)Nc2ccc(C(C)=O)cc2)c1,3.2,16.1%,/,/,5.2,0.667,-0.4
CC(=O)Nc1cccc(N2C(=O)CCC2=O)c1,-6.7,3.6%,0.8,-4.3,2.1,0.768,0.9
COC(=O)c1ccc(NC(=O)C2CCCN2S(=O)(=O)c2ccc(F)cc2)cc1 (stereo not drawn),-3.5,/,-0.5,-0.9,1.6,0.737,-3.8
Cc1ccc(C(=O)NCCS(=O)(=O)N2CCN(c3ccccc3F)CC2)cc1[N+](=O)[O-],2.3,/,0.2,0.4,2.2,0.663,-1.3
Cc1nnc(NC(=O)CSC2=NN3CCCC(=O)N=C3S2)s1,-9.7,-2.9%,1.0,-0.1,1.6,0.618,0.0
CN(C)C(=O)CN1C(=O)NC2(CCCc3ccccc32)C1=O (stereo not drawn),-3.1,5.3%,1.6,-9.7,0.8,0.655,1.1
O=C(NC(=S)Nc1ccccc1N1CCCCC1)c1cccs1,-13.1,/,-0.2,-4.7,8.1,0.691,-1.5
CCCCCCCCCCCCCCCC(=O)NCCc1c[nH]c2ccccc12,18.5,/,-0.1,-12.7,-0.7,0.669,8.4
Cc1ccccc1NC(=O)NCC1CCN(c2ccc(S(=O)(=O)N3CCOCC3)cc2)CC1,-1.3,-11.1%,-0.3,0.7,-0.2,0.657,0.3

# Source: PubChem

# Hits appear at their usual frequency; 2.1% or so of the library scored in one or more.
